D2 ag: Beta-Arrestin HTS for Positive Allosteric Modulators of the Human D2 Dopamine Receptor: Agonists | D(2) dopamine receptor (Homo sapiens), P14416 | DiscoveRx PathHunter D2 beta-arrestin, luminescence, 90 min; 100% = 57 uM dopamine signal | activation, % (test concentration not listed) | 0.084% of 360,000 active | AID 624465, 2012; in the data active = activation above about 40%; inconclusive = about 15% to 40%; inactive = below about 15%; also: compound concentration not given in the record; the text of the record calls up to 30% inactive
Target sequence (P14416 whole entry, looked up): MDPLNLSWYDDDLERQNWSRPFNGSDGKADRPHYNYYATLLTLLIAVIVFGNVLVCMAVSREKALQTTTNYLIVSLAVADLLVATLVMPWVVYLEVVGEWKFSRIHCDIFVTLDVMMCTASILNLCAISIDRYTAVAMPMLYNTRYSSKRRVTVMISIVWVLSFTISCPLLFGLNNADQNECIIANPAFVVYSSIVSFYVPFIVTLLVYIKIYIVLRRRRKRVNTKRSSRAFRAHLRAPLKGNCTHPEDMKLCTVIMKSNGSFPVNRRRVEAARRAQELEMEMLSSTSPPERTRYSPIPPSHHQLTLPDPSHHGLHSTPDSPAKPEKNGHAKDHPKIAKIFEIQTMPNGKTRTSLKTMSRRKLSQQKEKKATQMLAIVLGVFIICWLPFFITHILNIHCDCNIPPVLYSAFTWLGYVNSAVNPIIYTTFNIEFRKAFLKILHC
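DiscoveRx PathHunter D2 beta-arrestin cells (2,100/well) attached overnight, then compound-stimulated 90 min at 37 C in HBSS/10 mM HEPES/0.1% Tween-20 buffer; beta-galactosidase complementation read by luminescence after 1 h at ambient temperature. Dopamine 57 uM final (EC100) as control.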
TRPML1 agonist: qHTS for Agonists of the Human Mucolipin Transient Receptor Potential 1 (TRPML1). activation, % (no concentration beside the values). Mucolipin-1 (Homo sapiens), Q9GZU1. 0.12% of 410,000 active. TRPML1-expressing cells, Ca2+ dye fluorescence, FDSS; host cell line not named in the record; reference of the full effect not given here; in the data active = activation above about 50%; inconclusive = about 30% to 50%; inactive = below about 30%; also: 0% is about no effect; the text of the record puts the active cut at 80%
Target sequence (Q9GZU1 whole entry, looked up): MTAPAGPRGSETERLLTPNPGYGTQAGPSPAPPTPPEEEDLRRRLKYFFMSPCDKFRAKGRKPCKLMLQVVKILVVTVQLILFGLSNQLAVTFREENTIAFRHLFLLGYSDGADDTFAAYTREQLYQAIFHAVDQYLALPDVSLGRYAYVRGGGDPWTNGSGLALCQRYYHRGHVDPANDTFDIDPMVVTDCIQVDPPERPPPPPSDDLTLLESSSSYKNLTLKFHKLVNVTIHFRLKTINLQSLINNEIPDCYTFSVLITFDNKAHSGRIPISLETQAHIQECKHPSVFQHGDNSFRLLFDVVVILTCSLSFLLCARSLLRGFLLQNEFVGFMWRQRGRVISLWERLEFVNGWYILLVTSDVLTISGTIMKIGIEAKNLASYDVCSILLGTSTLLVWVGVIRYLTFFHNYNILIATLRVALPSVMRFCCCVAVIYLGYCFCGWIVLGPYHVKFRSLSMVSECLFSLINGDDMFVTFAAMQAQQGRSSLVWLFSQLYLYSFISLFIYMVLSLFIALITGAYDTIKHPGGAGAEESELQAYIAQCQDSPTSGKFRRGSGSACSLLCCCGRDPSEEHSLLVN
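Tet-induced TRPML1-DL cells, 1,500 per well, cultured overnight, were loaded with a no-wash Ca2+ dye for 45–90 min. Calcium fluorescence was recorded on the FDSS for 110 s after compound addition, before the EC80 agonist (4 uM 54-4) was added.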
TRPML1 inh: qHTS for Inhibitors of the Human Mucolipin Transient Receptor Potential 1 (TRPML1). TRPML1-inducible cells, Ca2+ dye fluorescence, FDSS; hits give low values; inhibition of EC80 agonist-evoked calcium signal. activity change, negative = inhibition, % (no concentration beside the values). 0.02% of 390,000 active; in the data active means activity change below about -50%; inconclusive means about -30% to -50%; inactive means above about -30%;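 also: stimulus is agonist 54-4 at its EC80 concentration; % is scaled to controls: 0 for no effect and ±100 for the full control effect; compound concentration not given in the record; the text of the record puts the active cut at -80%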
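Tet-induced TRPML1-DL cells loaded with Ca8 no-wash calcium dye were read kinetically on FDSS. Compound addition was followed by EC80 agonist 54-4 (4 uM final); inhibition was read over 110 s.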
Six1-Eya2 blk: qHTS Assay for Inhibitors of the Six1/Eya2 Interaction; AlphaScreen GST-Six1/His-Eya2 binding, biochemical; hits give low values; control for the full effect not named in the record; activity change, % (test concentration not listed); AID 651725, 2012; Homeobox protein SIX1 (Homo sapiens) + Protein phosphatase EYA2 (Homo sapiens), …; 0.56% of 360,000 active; in the data active = activity change below about -65%; inconclusive = about -30% to -65%; inactive = above about -30%; also: % is scaled to controls: 0 for no effect and ±100 for the full control effect; compound concentration not given in the record
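AlphaScreen with GST-Six1 and His-Eya2 (5X mix: 250 nM and 500 nM), glutathione donor and nickel acceptor beads; buffer 50 mM Tris pH 8.0, 300 mM NaCl, 1 mM TCEP; 1 h at 37 C in the dark.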
PINK1 modulator: A Quantitative High throughput Screen to Identify Chemical Modulators of PINK1 Expression. PINK1 immunofluorescence, high-content cytometry, 24 h. Potency, µM (series often up to 76.6 µM), for the others: top-dose activation (PINK1 increase), hits mostly activators. 0.2% of 410,000 active. AID 624263, 2012; active = well fitted activation curve with a large enough effect; inconclusive = small, poorly fitted or top-dose-only effect; inactive = flat fitted curve, though single readings scatter; cell line not stated here;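 also: potency is read from the fitted curve at half-maximal effect; % of control where 0% means no effect; nearly all actives have a fitted effect of over 65% in size; a mitochondrial uncoupler was the plate control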
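Measures PINK1 amount and localization on or inside mitochondria by immunofluorescence. Stable cells get compounds at 5 concentrations for 24 hours before fixation and staining; CCCP controls included.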
D2 potentiator: Beta-Arrestin HTS for Positive Allosteric Modulators of the Human D2 Dopamine Receptor: Potentiators | DiscoveRx D2 beta-arrestin cells, luminescence, 90 min; 100% = 57 uM dopamine signal | potentiation, % (test concentration not listed) | 0.23% of 360,000 active; active = potentiation of 50% or more; inconclusive = 30% to 50%; inactive = 30% or less;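 also: compound concentration not given in the record; tested on top of an EC20 dose of dopamine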
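D2 cells co-treated with compound plus 50 nM dopamine (EC20) for 90 min at 37 deg C to detect potentiation. Beta-arrestin recruitment was read as enzyme-fragment luminescence after 1 h at ambient temperature. Full response was set by 57 uM dopamine.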
An asterisk follows results filed as active; u = inconclusive; x = not tested or not shown; [ ] = another dose, or the depositor's remark.

SMILES	D2 ag	TRPML1 agonist	TRPML1 inh	Six1-Eya2 blk	PINK1 modulator	D2 potentiator
COc1ccccc1N1CCN(C(=O)c2oc3ccccc3c2N)CC1	x	0.7	45	x	-0.8%	x
Cc1ccc(/C=C2\SC(=S)N(CCC(=O)Nc3ccc(O)cc3)C2=O)cc1	1.9	-0.1	-18	-2	-0.3%	-1
Cc1nnsc1C(=O)NNc1ccc(C(C)C)cc1	-5.4	-0.5	1	2	-0.9%	-11
COc1ccc(S(=O)(=O)Nc2c(C(=O)O)[nH]c3ccccc23)cc1	4.0	0.5	31	0	1.4%	-3
Cc1c(C(=O)NCc2ccc3c(c2)OCO3)sc(=O)n1Cc1cccc(F)c1	2.2	1.0	x	-23	0.8%	-1
C/C(=N/NS(=O)(=O)c1ccc(C)cc1)c1c[nH]c2ccccc12	-0.9	1.7	5	6	1.8%	-7
CCC(C)C(NC(=O)c1ccccc1NC(=O)c1ccccc1)C(=O)O (stereo not given)	-0.8	x	x	2	0.1%	1
CCN(CC)Cc1c(C(=O)N/N=C/c2ccc(C)o2)nnn1-c1nonc1N	-1.2	-0.6	14	3	-0.6%	-4
CCCn1c(=O)c2sccc2n2c(CCCC(=O)NCC3CCCO3)nnc12 (stereo not given)	-3.5	-0.9	-7	-2	-0.6%	3
Cc1ccc(N(CC(=O)Nc2ccccc2C(=O)NCc2ccco2)S(=O)(=O)c2ccccc2)cc1C	0.5	0.7	7	-4	-1.3%	-4
COC(=O)c1c(C)[nH]c(C(=O)CSc2ccc(Cl)cc2)c1C	2.7	2.1	10	0	9.4%	-38
CC1CCN(C(=O)CSc2nc3c([nH]c4ccccc43)c(=O)n2-c2ccccc2)CC1	x	-0.3	-6	x	1.1%	x
CCc1nnc(NC(=O)CSc2nc3[nH]c(=O)cc(O)c3s2)s1	0.4	0.2	-4	-6	-3.1%	29
CCCCOc1ccc(-c2[nH]ncc2C=O)cc1	-3.9	-0.3	-8	2	-0.3%	-9
CCC(=O)N=c1sc2cc([N+](=O)[O-])ccc2n1CCOC	-2.7	1.3	-4	7	-0.5%	-4
COc1ccc(-c2csc(NC(CO)c3nc4ccccc4n3CCCO)n2)cc1 (stereo not given)	-3.0	0.3	7	0	-0.7%	-8
COc1ccc(N2CCN(C(=O)CCCn3c(=O)c4cccn4c4cccnc43)CC2)cc1	-1.5	-0.1	6	-12	-0.4%	-31
CCC(=O)Oc1ccc(C2N(C(=O)CC)CCN2S(=O)(=O)c2ccc(C)cc2)cc1OC (stereo not given)	-0.5	0.2	-4	9	-2.1%	-9
CCN(CC)C(=O)COn1c(SCC(=O)N(CC)CC)nc2ccccc2c1=O	-4.8	-0.9	-5	2	10%[38.3 µM]	1
O=C(CSc1oc(-c2ccc(F)cc2)nc1S(=O)(=O)c1ccccc1)c1ccc(Cl)cc1	x	2.4	43	x	-0.5%	x
Cn1cc(Cl)c(C(=O)Nc2cccc(Cl)c2Cl)n1	1.1	0.0	6	3	x	-5
CCC(CC)C(=O)NCc1ccc(OC)cc1	2.1	0.1	37	1	-0.4%	-22
O=C(CN1C(=O)c2ccccc2S1(=O)=O)NCc1ccccn1	-1.4	-0.2	-4	4	-4.0%[38.3 µM]	u
Cc1cc(C)nc(NC(=O)c2cc3ccccc3o2)n1	-1.2	0.0	0	1	0.1%[38.3 µM]	-14
Cn1c(=O)c2c(=O)cc(NNC(=O)CC#N)[nH]c2n(C)c1=O	-3.4	5.2	3	0	-2.0%	1
Remaining list, next part.
SMILES	D2 ag	TRPML1 agonist	TRPML1 inh	Six1-Eya2 blk	PINK1 modulator	D2 potentiator
Cc1ccc(NCc2cccn2-c2nnc(N3CCC(C(=O)NCc4ccc(OC(C)C)cc4)CC3)s2)cc1	x	0.3	41	x	1.2%	x
O=C(CN(Cc1ccccc1)C(=O)CCC(=O)Nc1nccs1)NCc1ccccc1	1.0	-0.5	7	-13	3.1%	3
COc1cccc(Cn2cnc(-c3ccccc3OC)c2-c2cc(C)cc(C)c2)c1	x	3.1	x	-25	u	x
O=C(NCCc1c[nH]c2ccccc12)C(=O)NCC1OCCCN1S(=O)(=O)c1cc(F)ccc1F (stereo not given)	3.5	0.2	-7	-8	2.7%	8
NC(=O)c1ccc(NCCCN2CCOCC2)c([N+](=O)[O-])c1	-4.8	2.4	16	2	-0.5%	0
Cc1ccc(OCC(=O)Nc2ccc(-c3nc4ncccc4o3)cc2)c(C)c1	-1.0	1.5	-11	0	6.1%	1
Cn1c(SCc2c(F)cccc2Cl)nnc1-c1cccs1	-2.1	1.2	6	11	-4.4%	-10
CCOc1cc(S(=O)(=O)N2CCCCC2)ccc1Cl	-5.5	-0.2	-15	7	2.0%	-7
COc1cccc(C(=O)Nc2cccc(OCc3cc(=O)n4cccc(C)c4n3)c2)c1	x	0.0	1	x	1.6%	x
Cc1ccc(CNS(=O)(=O)c2ccc(CN3C(=O)c4cccnc4C3=O)cc2)o1	8.2	1.5	33	-11	1.2%	-10
Cc1cc(C)nc(N2N=C(C(F)(F)F)CC2=O)n1	-2.6	0.1	-4	3	0.8%	9
COc1ccc2c(c1)c(N=O)c(O)n2C	-1.2	-0.3	7	-3	1.5%	-5
Nc1nc(N)c2cc(Sc3ccc4ccccc4c3)ccc2n1	-3.9	0.7	-17	21	-1.0%	-16
CC(C)c1nnc(NC(=O)c2cccc(-n3cnnn3)c2)s1	-2.0	-0.5	-11	-1	0.0%	-9
O=C(Nc1ccccc1C(=O)N1CCOCC1)c1ccc(Br)cc1	-0.7	0.0	1	6	1.1%	-8
CCc1ccc(NC(=O)COC(=O)CCc2nc3cc(S(=O)(=O)N(CC)CC)ccc3n2C)cc1	-0.8	0.9	13	1	-0.8%	4
Cc1noc(NS(=O)(=O)c2ccc(NC(=O)CSc3nc4c(cc3C#N)CCCC4)cc2)c1C	-2.8	-0.7	6	-15	1.0%	-2
CCn1ccc2c(OCC(=O)NCCc3ccc(OC)c(OC)c3)cccc2c1=O	2.3	0.3	-1	-1	-0.7%	0
Cc1cccc(C(O)(C(=O)NNc2ccc3ccccc3n2)c2cccc(C)c2)c1	-5.9	0.7	-2	6	6.9%	-22
COC(=O)c1ccccc1NC(=O)NCc1ccc2c(c1)CCN2C(=O)c1ccccc1	x	0.7	2	x	0.8%	x
CCN(CC)S(=O)(=O)c1ccc(C(=O)NNC(=O)c2csc(N3CCOCC3)n2)cc1	-6.6	0.0	-9	-23	-0.6%	-14
O=C(O)CCSCC(=O)c1ccc2c(c1)OCCO2	-1.9	-0.4	0	18	1.3%	-2
Cc1ccc(S(=O)(=O)N2CCCCC2)cc1C(=O)N1CCCCCC1	-1.7	-0.5	8	12	-0.1%	-5
Cc1ccc(C(C)C)c(OCc2ccc(C(=O)N/N=C/c3cccc(O)c3O)cc2)c1	0.4	2.8	-17	-22	u	8
CCN(c1ccccc1)S(=O)(=O)c1cc(C(=O)OCC(=O)c2c(N)n(C)c(=O)n(C)c2=O)ccc1C	-0.7	1.0	13	-25	2.2%	-1

Seven compounds from above, ordered by number of heavy atoms, falling:
SMILES	D2 ag	TRPML1 agonist	TRPML1 inh	Six1-Eya2 blk	PINK1 modulator	D2 potentiator
CCc1ccc(NC(=O)COC(=O)CCc2nc3cc(S(=O)(=O)N(CC)CC)ccc3n2C)cc1	-0.8	0.9	13	1	-0.8%	4
CCN(CC)S(=O)(=O)c1ccc(C(=O)NNC(=O)c2csc(N3CCOCC3)n2)cc1	-6.6	0.0	-9	-23	-0.6%	-14
Cc1ccc(CNS(=O)(=O)c2ccc(CN3C(=O)c4cccnc4C3=O)cc2)o1	8.2	1.5	33	-11	1.2%	-10
Cc1ccc(S(=O)(=O)N2CCCCC2)cc1C(=O)N1CCCCCC1	-1.7	-0.5	8	12	-0.1%	-5
NC(=O)c1ccc(NCCCN2CCOCC2)c([N+](=O)[O-])c1	-4.8	2.4	16	2	-0.5%	0
Cn1c(SCc2c(F)cccc2Cl)nnc1-c1cccs1	-2.1	1.2	6	11	-4.4%	-10
COc1ccc2c(c1)c(N=O)c(O)n2C	-1.2	-0.3	7	-3	1.5%	-5

(next part)
SMILES	D2 ag	TRPML1 agonist	TRPML1 inh	Six1-Eya2 blk	PINK1 modulator	D2 potentiator
CC(C)(C)C(Cn1ccnc1)NC(=O)c1ccc2nc(C3CC3)oc2c1 (stereo not given)	-0.5	-0.4	7	6	0.8%	-21
COC(=O)C1CCCN1S(=O)(=O)c1ccccc1NC(=O)c1cc(OC)c(OC)c(OC)c1 (stereo not given)	8.7	0.7	2	-1	0.6%	-5
Cc1nc2c(c(C)nn2-c2ccccc2)c(C)c1CCC(=O)NCc1ccccc1	x	1.8	-6	x	2.7%	x
Cc1ccc(C2/C(=C(/O)c3ccc(Cl)cc3)C(=O)C(=O)N2CC2CCCO2)o1 (stereo not given)	-3.2	-0.5	30	-4	0.2%	-7
CC(NC(=O)COC(=O)C12CC3CC(CC(Br)(C3)C1)C2)c1ccccc1 (stereo not given)	-1.4	0.5	-3	1	-1.7%	-6
c1ccc(CN2CCC(Nc3nc(-c4ccccc4)nc4ccccc34)CC2)cc1	-1.8	1.7	15	-11	-2.5%	-41
CCn1cnc2cc(NCc3ccc(Cl)cc3)ccc21	2.6	-0.1	-23	-1	-0.2%	-6
COc1cc2c(cc1OC)C(C(C)C)=NC(C)(C)C2	-1.7	0.3	-8	8	0.1%	-25
O=C(c1ccccc1)c1cccc(C(=O)c2ccccc2)c1	-1.1	1.8	8	25	3.3%	4
Cc1ccc(S(=O)(=O)N(C)C)cc1NC(=O)C(C)OC(=O)C1CCC1 (stereo not given)	0.7	0.1	11	0	0.9%	-5
COc1ccc(N=Cc2cc(Cc3ccccc3Cl)cc([N+](=O)[O-])c2O)cc1OC	-3.4	1.5	3	-1	-0.8%	-7
CN(C)c1cc[n+](CC(=O)Nc2cc(C(F)(F)F)ccc2Cl)cc1	-0.1	-0.5	-7	3	0.8%[38.3 µM]	-30
CCOc1cc(C(=O)CCC(=O)OCC(=O)NC(=O)NCC(C)C)ccc1O	-5.0	0.0	u	3	0.6%	8
CCN(C(=O)CSc1nnc(C(C)N(C)C)n1-c1ccc(F)cc1)C1CCS(=O)(=O)C1 (stereo not given)	4.8	1.1	17	8	0.9%	-1
COc1ccc(NC(=S)Nc2ccc(S(=O)(=O)N3CCCCC3)cc2)cc1	-0.6	-0.2	0	2	-0.1%	-3
Cn1c(N)c(C(=O)CSc2nnc(C3CC3)n2-c2ccccc2)c(=O)[nH]c1=O	-0.9	-0.4	4	-8	-0.1%	-29
OCCCNc1ncnc2c1ncn2[C@H]1CN(Cc2ccco2)C[C@@H](CO)O1	-3.7	-0.2	x	5	1.1%	-1
CCOC(=O)CSc1nnc(CNC(=O)c2cccc(C)c2)n1C	u	0.5	-8	6	1.6%	0

Bioassay records from PubChem.
